Assay outcomes as filed in PubChem.
UUG fidelity = yeast start codon fidelity modulation; S. cerevisiae UUG-firefly luciferase reporter, luminescence/redox ratio; activity score, % at 18.7 µM; 0.13% of 350,000 active;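 active means replicate mean at a twofold rise or more, about +100% in these data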;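 further: firefly luciferase made from a UUG start codon reports start codon fidelity; reporter light over untreated wells divided by growth signal over untreated wells; some hits fall short of that in this replicate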
HIV Env fusion = inhibitors of HIV Env-mediated cell fusion. HeLa-JRFL Env/CEM21 cell fusion, luciferase. AID 651610. inhibition, % at 12.3 µM. 1.1% of 360,000 active;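 active means mean replicate inhibition score of at least 50 and every replicate individually at or above 50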;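 further: 0% = plate neutral controls and 100% = maraviroc near 300 nM; one replicate is shown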
An asterisk follows results filed as active; [ ] = remark or other dose. This is a subset; rates above refer to the full screens.

UUG fidelity	HIV Env fusion	smiles
-11	-1[16.7 µM]	COc1ccc(S(=O)(=O)N(C)C[C@@H]2OCCCC[C@H](C)Oc3ccc(NC(=O)Nc4ccc(C(F)(F)F)cc4)cc3C(=O)N([C@@H](C)CO)C[C@@H]2C)cc1
7	-2[16.7 µM]	C[C@H](CO)N1C[C@H](C)[C@@H](CN(C)C(=O)c2ccc3c(c2)OCO3)Oc2ncc(C#Cc3ccccc3F)cc2C1=O
-5	4[16.7 µM]	CC(=O)N(C)C[C@H]1Oc2cc(C#CC3CC3)ccc2S(=O)(=O)N([C@H](C)CO)C[C@H]1C
2	6[16.7 µM]	O=C(C[C@H]1C=C[C@H](NC(=O)c2ccc(F)cc2)[C@H](CO)O1)NCCc1ccccc1
-12	9[16.7 µM]	C[C@H](CO)N1C[C@H](C)[C@@H](CN(C)S(=O)(=O)c2ccccc2)Oc2ncc(C#CC3CCCCC3)cc2C1=O
7	-4[16.7 µM]	C[C@@H]1CCCCO[C@@H](CN(C)C(=O)Cc2ccccc2)[C@@H](C)CN([C@H](C)CO)C(=O)c2cc(NC(=O)c3ccncc3)ccc2O1
-3	-1[16.7 µM]	C[C@@H]1CN([C@H](C)CO)C(=O)c2cc(NC(=O)c3ccccc3)ccc2O[C@@H](C)CCCCO[C@H]1CN(C)C(=O)CCC(F)(F)F
-4	-47[16.7 µM]	Cc1noc(C)c1NC(=O)Nc1ccc2c(c1)C(=O)N([C@@H](C)CO)C[C@@H](C)[C@H](CN(C)S(=O)(=O)c1ccccc1)OCCCC[C@@H](C)O2
-17	8[16.7 µM]	C[C@@H]1CCCCO[C@H](CN(C)C(=O)Nc2ccc(C(F)(F)F)cc2)[C@H](C)CN([C@@H](C)CO)C(=O)c2cc(NC(=O)Nc3ccc(F)cc3)ccc2O1
-4	14[16.7 µM]	CCCc1cn(CC[C@@H]2CC[C@@H](NC(=O)Nc3ccccc3F)[C@H](CO)O2)nn1
7	8[16.7 µM]	CC(C)NC(=O)N(C)C[C@H]1Oc2c(cccc2N(C)C)C(=O)N([C@@H](C)CO)C[C@@H]1C
2	-10[16.7 µM]	C[C@@H]1CN([C@H](C)CO)C(=O)c2cc(NS(=O)(=O)c3cn(C)cn3)ccc2O[C@@H](C)CCCCO[C@H]1CN(C)C(=O)Nc1ccccc1
8	24[16.7 µM]	COc1ccc(NC(=O)N(C)C[C@H]2Oc3ccc(NC(=O)C4CC4)cc3C(=O)N([C@@H](C)CO)C[C@H]2C)cc1
17	10[16.7 µM]	CC(C)CC#Cc1cnc2c(c1)C(=O)N([C@@H](C)CO)C[C@H](C)[C@H](CN(C)C(=O)Nc1ccccc1F)O2
3	-87[16.7 µM]	COc1ccc(NC(=O)N(C)C[C@H]2OCCCC[C@@H](C)Oc3ccc(NS(=O)(=O)c4ccc(OC)cc4)cc3C(=O)N([C@@H](C)CO)C[C@@H]2C)cc1
2	-8[16.7 µM]	C[C@H]1CCCCO[C@@H](CN(C)CC2CCCCC2)[C@@H](C)CN([C@@H](C)CO)C(=O)c2cc(NC(=O)NC3CCCCC3)ccc2O1
7	-22[16.7 µM]	Cc1noc(C)c1NC(=O)N(C)C[C@@H]1Oc2ccc(NC(=O)Nc3ccc(C(F)(F)F)cc3)cc2CC(=O)N([C@H](C)CO)C[C@@H]1C
0	22[16.7 µM]	CCNC(=O)C[C@@H]1CC[C@@H]2[C@@H](COc3ccc(NC(=O)Nc4cccc(Cl)c4)cc3C(=O)N2C)O1
5	4[16.7 µM]	C[C@H]1CCCCO[C@H](CN(C)C)[C@@H](C)CN([C@@H](C)CO)C(=O)c2cc(NC(=O)Nc3ccc4c(c3)OCO4)ccc2O1
0	3[16.7 µM]	C[C@H](CO)N1C[C@H](C)[C@@H](CN(C)Cc2ccc(Cl)c(Cl)c2)Oc2ccc(NS(=O)(=O)c3cn(C)cn3)cc2CC1=O
-6	1[16.7 µM]	CNC(=O)C[C@@H]1CC[C@H]2[C@H](COc3ccc(NC(=O)NC4CCCC4)cc3C(=O)N2C)O1
5	-20[16.7 µM]	C[C@H]1CCCCO[C@H](CN(C)Cc2ccc(C(F)(F)F)cc2)[C@@H](C)CN([C@@H](C)CO)C(=O)c2cc(NS(=O)(=O)c3cn(C)cn3)ccc2O1
1	11[16.7 µM]	C[C@@H]1CN([C@@H](C)CO)S(=O)(=O)c2ccc(-c3ccncc3)cc2O[C@H]1CN(C)C(=O)c1ccc2c(c1)OCO2
13	-3[16.7 µM]	CO[C@H]1CN(C)C(=O)c2ccc(NC(=O)Nc3ccc(C(F)(F)F)cc3)cc2OC[C@H](C)NC[C@H]1C
-11	5[16.7 µM]	O=C(N[C@H]1CC[C@@H](CC(=O)N2CCc3ccccc3C2)O[C@H]1CO)C1CCOCC1
-7	13[16.7 µM]	CN(C)CCCNC(=O)C[C@@H]1CC[C@@H]2[C@H](COc3ccc(NC(=O)c4cccc(F)c4)cc3C(=O)N2C)O1
6	2[16.7 µM]	O=C(C[C@@H]1C=C[C@@H](NC(=O)Nc2ccc(F)cc2)[C@H](CO)O1)NCCN1CCCC1
-2	-4[16.7 µM]	CNC[C@H]1Oc2ccc(NC(=O)Cc3ccccc3)cc2C(=O)N([C@@H](C)CO)C[C@@H]1C
-2	-21[16.7 µM]	C[C@@H](NC(=O)C[C@H]1CC[C@H](NC(=O)Nc2ccc3c(c2)OCO3)[C@H](CO)O1)c1ccccc1
9	0[16.7 µM]	C/C=C/c1cnc2c(c1)C(=O)N([C@@H](C)CO)C[C@H](C)[C@H](CN(C)C(=O)c1cnccn1)O2
-1	-11[16.7 µM]	C[C@H](CO)N1C[C@H](C)[C@@H](CN(C)S(=O)(=O)c2cn(C)cn2)Oc2ncc(C3=CCCC3)cc2C1=O
0	21[16.7 µM]	C[C@@H]1CN([C@H](C)CO)C(=O)Cc2cc(NC(=O)Nc3cccc4ccccc34)ccc2O[C@H]1CN(C)Cc1ccc(Oc2ccccc2)cc1
-3	-17[16.7 µM]	C[C@H]1CN([C@@H](C)CO)C(=O)CCCn2cc(nn2)CO[C@@H]1CN(C)Cc1cccc(O)c1
-10	-18[16.7 µM]	C[C@H](CO)N1C[C@H](C)[C@@H](CN(C)C(=O)Nc2cccc3ccccc23)Oc2ccc(NC(=O)Nc3ccc(C(F)(F)F)cc3)cc2CC1=O
11	18[16.7 µM]	C[C@@H]1CN([C@H](C)CO)C(=O)CCCn2cc(nn2)CO[C@@H]1CN(C)S(=O)(=O)c1ccc2ccccc2c1
-13	-9[16.7 µM]	CO[C@@H]1CN(C)C(=O)c2ccc(NC(=O)Cc3ccccc3)cc2OC[C@@H](C)N(CC2CC2)C[C@@H]1C
3	-25[16.7 µM]	C[C@@H]1CN([C@@H](C)CO)S(=O)(=O)c2ccc(C#Cc3ccccn3)cc2O[C@H]1CN(C)Cc1cccc(F)c1
7	30[16.7 µM]	Cc1ccc(S(=O)(=O)Nc2cccc3c2O[C@@H](CN(C)C(=O)Nc2ccc(F)cc2)[C@H](C)CN([C@H](C)CO)C3=O)cc1
-17	-3[16.7 µM]	C[C@@H]1CCCCO[C@H](CN(C)Cc2ccc(C(=O)O)cc2)[C@H](C)CN([C@H](C)CO)C(=O)c2cc(NC(=O)CCCN(C)C)ccc2O1
7	3[16.7 µM]	CCCC(=O)Nc1ccc2c(c1)C(=O)N(C)C[C@@H](OC)[C@@H](C)CN(Cc1cncnc1)[C@H](C)CO2
2	-5[16.7 µM]	CNC[C@H]1Oc2ccc(NC(=O)CCN3CCOCC3)cc2CC(=O)N([C@@H](C)CO)C[C@H]1C
21	15[16.7 µM]	C[C@H]1CN([C@@H](C)CO)C(=O)c2cc(C#CC3CCCCC3)cnc2O[C@H]1CN(C)C(=O)Nc1ccccc1
1	-20[16.7 µM]	Cc1ccc(S(=O)(=O)NCC[C@@H]2CC[C@@H](NC(=O)CCN3CCCCC3)[C@H](CO)O2)cc1
31	7[16.7 µM]	C[C@H](CO)N1C[C@H](C)[C@H](CN(C)C(=O)CN(C)C)Oc2cc(C#Cc3ccccc3)ccc2S1(=O)=O
-8	13[16.7 µM]	Cc1noc(C)c1NC(=O)Nc1cccc2c1O[C@H](CN(C)S(C)(=O)=O)[C@H](C)CN([C@H](C)CO)C2=O
11	1[16.7 µM]	CCCc1cn(CC[C@H]2CC[C@@H](NC(=O)C3CCCC3)[C@H](CO)O2)nn1
2	5[16.7 µM]	C[C@H](NC(=O)C[C@@H]1C=C[C@H](NS(=O)(=O)c2cccc(F)c2)[C@@H](CO)O1)c1ccccc1
-3	-14[16.7 µM]	C[C@H](CO)N1C[C@H](C)[C@H](CN(C)C(=O)Cc2ccccc2)OCCCC[C@H](C)Oc2ccc(NS(=O)(=O)c3ccc(F)cc3)cc2C1=O
-12	52[16.7 µM]	C[C@H]1CN([C@@H](C)CO)C(=O)Cc2cc(NC(=O)Cc3cn(C)c4ccccc34)ccc2O[C@H]1CN(C)S(=O)(=O)c1cccs1
-9	-9[16.7 µM]	C[C@H]1CN([C@@H](C)CO)C(=O)Cc2cc(NC(=O)Nc3ccc(C(F)(F)F)cc3)ccc2O[C@H]1CN(C)C(=O)Nc1cccc2ccccc12
-7	-10[16.7 µM]	Cc1noc(C)c1NC(=O)N(C)C[C@H]1OCCCC[C@@H](C)Oc2ccc(NC(=O)NC3CCCCC3)cc2C(=O)N([C@H](C)CO)C[C@@H]1C
-4	3[16.7 µM]	CCc1cccc(NC(=O)O[C@H]2[C@H](OC(=O)Nc3ccc4c(c3)OCO4)[C@@H](OC(=O)Nc3ccc4c(c3)OCO4)[C@@H](OC)O[C@@H]2CO)c1
17	26[16.7 µM]	C[C@@H]1CN([C@@H](C)CO)C(=O)Cc2cc(NS(=O)(=O)c3cn(C)cn3)ccc2O[C@H]1CN(C)Cc1ccc(Cl)c(Cl)c1
1	46[16.7 µM]	C[C@H](CO)N1C[C@H](C)[C@H](CN(C)CC2CC2)Oc2ccc(NC(=O)Nc3ccc(C(F)(F)F)cc3)cc2CC1=O
8	-13[16.7 µM]	C[C@H]1CN([C@@H](C)CO)C(=O)Cc2cc(NC(=O)C3CCCCC3)ccc2O[C@H]1CN(C)CC1CCCCC1
7	-5[16.7 µM]	C[C@H]1CN([C@@H](C)CO)C(=O)c2cc(-c3cccnc3)cnc2O[C@H]1CN(C)C(=O)c1cccc(F)c1
0	13[16.7 µM]	COc1ccc(NC(=O)Nc2cccc3c2O[C@@H](CN(C)S(=O)(=O)c2ccc(F)cc2)[C@@H](C)CN([C@H](C)CO)C3=O)cc1
8	21[16.7 µM]	CCNC(=O)C[C@@H]1CC[C@H]2[C@H](COc3ccc(NC(=O)c4cscn4)cc3C(=O)N2C)O1
19	-9[16.7 µM]	C[C@@H]1CCCCO[C@@H](CN(C)Cc2ccncc2)[C@@H](C)CN([C@@H](C)CO)C(=O)c2cc(NC(=O)Nc3ccc(C(F)(F)F)cc3)ccc2O1
3	-22[16.7 µM]	CN1C(=O)c2cc(NC(=O)c3ccno3)ccc2OC[C@H]2O[C@@H](CC(=O)NCC3CC3)CC[C@@H]21

A different layout for five compounds above.
structure	UUG fidelity	HIV Env fusion
C[C@H]1CCCCO[C@H](CN(C)Cc2ccc(C(F)(F)F)cc2)[C@@H](C)CN([C@@H](C)CO)C(=O)c2cc(NS(=O)(=O)c3cn(C)cn3)ccc2O1	5	-20[16.7 µM]
C[C@@H]1CN([C@@H](C)CO)S(=O)(=O)c2ccc(-c3ccncc3)cc2O[C@H]1CN(C)C(=O)c1ccc2c(c1)OCO2	1	11[16.7 µM]
CO[C@H]1CN(C)C(=O)c2ccc(NC(=O)Nc3ccc(C(F)(F)F)cc3)cc2OC[C@H](C)NC[C@H]1C	13	-3[16.7 µM]
O=C(N[C@H]1CC[C@@H](CC(=O)N2CCc3ccccc3C2)O[C@H]1CO)C1CCOCC1	-11	5[16.7 µM]
CN(C)CCCNC(=O)C[C@@H]1CC[C@@H]2[C@H](COc3ccc(NC(=O)c4cccc(F)c4)cc3C(=O)N2C)O1	-7	13[16.7 µM]

Some of the entries above, reformatted:
Each structure is followed by: UUG fidelity, HIV Env fusion
- C[C@H]1CN([C@@H](C)CO)C(=O)CCCn2cc(nn2)CO[C@@H]1CN(C)Cc1cccc(O)c1
    -3, -17[16.7 µM]
- CN1C(=O)c2cc(NC(=O)c3ccno3)ccc2OC[C@H]2O[C@@H](CC(=O)NCC3CC3)CC[C@@H]21
    3, -22[16.7 µM]

(cont.)
UUG fidelity	HIV Env fusion	smiles
1	-6[16.7 µM]	O=C(Nc1ccc2c(c1)OCO2)N[C@@H]1CC[C@@H](CCNC(=O)C2CC2)O[C@@H]1CO
-20	-22[16.7 µM]	COC(=O)[C@@]1(Cc2ccccc2)COC(c2ccc(OCCCO)cc2)=N1
-13	15[16.7 µM]	O=C(C[C@@H]1CC[C@H]2[C@@H](COC[C@H](O)CN2Cc2nccs2)O1)N1CCC(Cc2ccccc2)CC1
-7	-8[16.7 µM]	C[C@H](CO)N1C[C@H](C)[C@H](CN(C)S(=O)(=O)c2ccc(Cl)cc2)Oc2ccc(NS(=O)(=O)c3cn(C)cn3)cc2CC1=O
-2	1[16.7 µM]	C[C@@H]1CN([C@@H](C)CO)C(=O)Cc2cc(NC(=O)c3ccncc3)ccc2O[C@H]1CN(C)C(=O)Nc1ccc(C(F)(F)F)cc1
4	5[16.7 µM]	C[C@H](CO)N1C[C@H](C)[C@H](CN(C)S(C)(=O)=O)Oc2ncc(-c3ccccc3)cc2C1=O
4	9[16.7 µM]	C[C@H](NC(=O)C[C@H]1CC[C@H]2[C@@H](COC[C@H](O)CN2Cc2ccc(C(F)(F)F)cc2)O1)c1ccccc1
1	0[16.7 µM]	Cc1ccc(S(=O)(=O)NCC[C@H]2CC[C@H](NC(=O)c3cnccn3)[C@H](CO)O2)cc1
